HSV replic up: increases HSV replication in cells; HSV replication augmentation in cells, fold increase; maximum fold increase; hit rate 0.005% among 220,000;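 active = peak rise of 1.5-fold or more in the series; tested in PC3 cells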;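 note: first round at 10 µM; read as green reporter fluorescence; hits show the peak of a series up to 25 µM; 1 = signal of infected wells without compound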
RGS16-Gao HTS: RGS16-Galphao interaction regulator (human); O15492+P09471; bead-based flow cytometry RGS16-Galphao binding, fluorescence; actives lie on both sides; binding response (% of control), % at 10 µM; hit rate 0.38% among 220,000; AID 1441;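 active = below 25% or above 175%, edge rows of some plates excepted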;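 note: Galphao activated by GDP with aluminum fluoride before binding; 100% = wells without compound and 0% = beads without RGS; some results beyond the cut were filed as inactive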
PKD1 kinase inh: blocks activity of human protein kinase D1. Q15139. PKD1 kinase fluorescence polarization assay. inhibition, %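 (about 10 µM by stock and volumes)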. hit rate 0.056% among 200,000;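 active = inhibition of 50% or more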;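 note: controls were vehicle for no effect and a reference inhibitor for full effect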
Target sequence (Q15139 whole entry, looked up): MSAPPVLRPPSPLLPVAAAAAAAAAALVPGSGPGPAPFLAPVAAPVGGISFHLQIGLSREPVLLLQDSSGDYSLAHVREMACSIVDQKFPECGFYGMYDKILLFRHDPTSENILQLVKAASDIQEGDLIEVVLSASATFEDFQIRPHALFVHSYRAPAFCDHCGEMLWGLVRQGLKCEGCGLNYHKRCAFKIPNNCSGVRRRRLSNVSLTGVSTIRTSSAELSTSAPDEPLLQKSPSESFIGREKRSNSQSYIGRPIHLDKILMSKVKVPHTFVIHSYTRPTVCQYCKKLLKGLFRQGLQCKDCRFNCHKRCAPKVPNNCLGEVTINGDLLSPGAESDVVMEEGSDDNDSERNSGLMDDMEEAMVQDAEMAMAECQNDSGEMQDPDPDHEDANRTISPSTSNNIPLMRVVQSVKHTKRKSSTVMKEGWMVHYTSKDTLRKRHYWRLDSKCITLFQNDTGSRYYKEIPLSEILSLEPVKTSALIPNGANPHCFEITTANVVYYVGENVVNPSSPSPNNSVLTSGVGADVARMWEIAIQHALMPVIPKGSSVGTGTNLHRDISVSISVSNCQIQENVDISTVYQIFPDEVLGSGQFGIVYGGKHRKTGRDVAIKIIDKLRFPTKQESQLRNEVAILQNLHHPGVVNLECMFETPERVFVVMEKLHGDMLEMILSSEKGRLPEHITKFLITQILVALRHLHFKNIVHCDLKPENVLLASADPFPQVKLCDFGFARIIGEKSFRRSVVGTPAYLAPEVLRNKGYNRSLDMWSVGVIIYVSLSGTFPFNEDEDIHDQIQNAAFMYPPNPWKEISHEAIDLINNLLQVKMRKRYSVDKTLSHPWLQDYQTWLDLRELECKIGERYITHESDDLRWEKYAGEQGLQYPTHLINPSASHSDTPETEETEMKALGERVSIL
GALR2 ag: activates the human galanin receptor 2 | activation, %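 (tested at 5 µM)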 | hit rate 0.48% among 140,000 | GALR2-expressing cells, agonist activation read-out | AID 803 | O43603;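 active = above mean plus 3 SD of all compounds, about 5% in these data, not always enough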;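 note: 0% = vehicle buffer wells and 100% = reference agonist at full effect; tested in CHO reporter cells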
Insulin prom inh: TRM-6 insulin promoter activity inhibition; TRM-6 cells (human fetal islet line), insulin promoter-eGFP reporter, imaging; reporter expression induced with tamoxifen; inhibition, % at 2 µM; hit rate 0.9% among 130,000;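 active = inhibition above the mean plus 3 SD, with well images judged a real hit on visual review, cut at about 60% in these data, passing the limit was not always enough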
Insulin prom inh cell count: further read-out of Insulin prom inh, marked with its call; normalized cell count, %; measured here: cell count, toxicity; reference of the scale not given here;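 cells exposed to compound for 48 h; stained nuclei by imaging scaled within each plate; lower means fewer cells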
HSV replic up primary fold: recorded beside HSV replic up, whose call it bears; fold increase; compound at 10 µM; measured here: primary screen fold increase 10 uM; tested in PC3 cells;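 GFP signal in the first replicate; 1 = infected wells without compound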
An asterisk follows results filed as active; i = inactive; . = not tested or not shown.

SMILES	HSV replic up	HSV replic up primary fold	RGS16-Gao HTS	PKD1 kinase inh	GALR2 ag	Insulin prom inh	Insulin prom inh cell count
CC(C)N1CCc2c(sc(NC(=O)c3ccc(S(=O)(=O)N4CCOCC4)cc3)c2C#N)C1	i	1.1	139	-8	-1.0	.	.
O=C(C1CCN(C2CC(=O)N(Cc3ccccc3)C2=O)CC1)N1CCCCCC1 (stereo unspecified)	i	0.95	99	2	-2.5	-238	78
O=C(Nc1nc(-c2ccccc2)ns1)c1cccs1	i	1.1	101	-3	-0.7	.	.
CC(=O)N(Cc1cc2c(C)cc(C)cc2[nH]c1=O)C1CCCCC1	i	1.2	77	-3	1.3	.	.
COc1ccc(NC(=O)CSc2nnc(Cn3cnc([N+](=O)[O-])n3)n2C)cc1	i	1	100	7	-0.4	7	113
COCCNC(=S)NC1CC2CCC(C1)N2Cc1ccccc1 (stereo unspecified)	i	1.1	110	-3	.	.	.
O=C(NC(=O)c1ccc(Cl)cc1)Nc1cc(N2CCCCC2)ncn1	.	.	.	-3	-2.3	1	127
Cc1ccc(O)c(NC(=O)c2ccco2)c1	i	0.92	101	-12	-0.6	-65	28
COC(=O)C(NC(=O)C(C)Oc1ccccc1)C(C)C (stereo unspecified)	i	0.99	103	-6	-0.7	31	160
COC(=O)Oc1c(Br)c(=O)oc2ccccc12	i	0.99	102	-1	-0.7	-1	180
COc1ccccc1CNC(=O)CN(C)CC(=O)Nc1cccc(F)c1	i	0.87	101	-11	-0.2	.	.
CC/C(=N/NC(=O)c1ccc(Br)cc1)c1ccc(OCCN2CCOCC2)cc1	i	0.9	99	2	-0.6	56	97
Nc1cccc(NC(=O)c2cccs2)c1	i	0.99	91	-7	-4.9	-38	104
C(=N\Nc1nc(-c2cccnc2)nc2ccccc12)/c1ccccc1	i	0.95	90	.	.	.	.
COc1ccc(-c2cnc[nH]2)cc1	i	0.95	105	1	.	28	170
Cc1ccc(NC2Sc3ccccc3NC2=O)cc1Cl (stereo unspecified)	i	0.94	104	.	.	.	.
Cc1ccc(-n2nc3c(c2NC(=O)c2ccc4c(c2)OCO4)CSC3)c(C)c1	i	0.97	96	12	-0.1	-27	109
O=C(O)c1ccccc1NSc1ccccc1[N+](=O)[O-]	i	1.1	79	-3	.	.	.
CCC(C)C(NC(=O)C(N)CC(C)C)C(=O)NC(CCC(=O)OCc1ccccc1)C(N)=O (stereo unspecified)	i	1	108	-5	-1.6	-57	80
CC(C)C(NC(=O)c1ccc(Cl)cc1)C(=O)NC1=NCCS1 (stereo unspecified)	i	0.87	110	-5	-1.9	62	51
O=C(OCC(=O)N1CCN(C(=O)c2ccco2)CC1)c1cc(-c2ccc(F)cc2)nc2ccccc12	i	0.74	100	10	-0.6	.	.
CN(C)C(=O)c1ccccc1Sc1ccc(Cl)cc1Cl	i	1	99	7	-0.7	-63	93
COc1ccccc1C1C=C(c2ccc(Cl)cc2)Nc2nc(N3C(=O)CCC3=O)nn21 (stereo unspecified)	i	0.93	100	-5	-1.1	29	139
CCOC(=O)c1c(C)[nH]c(C)c1C(=O)CSc1nc(N)cc(N)n1	.	.	99	-7	-1.8	.	.
COc1ccccc1OC(=O)c1ccc2nsnc2c1	i	0.81	104	-4	-0.1	39	111

Molecules listed so far with a thiophene ring, fused or not (3):
SMILES	HSV replic up	HSV replic up primary fold	RGS16-Gao HTS	PKD1 kinase inh	GALR2 ag	Insulin prom inh	Insulin prom inh cell count
CC(C)N1CCc2c(sc(NC(=O)c3ccc(S(=O)(=O)N4CCOCC4)cc3)c2C#N)C1	i	1.1	139	-8	-1.0	.	.
O=C(Nc1nc(-c2ccccc2)ns1)c1cccs1	i	1.1	101	-3	-0.7	.	.
Nc1cccc(NC(=O)c2cccs2)c1	i	0.99	91	-7	-4.9	-38	104

The listing continues.
SMILES	HSV replic up	HSV replic up primary fold	RGS16-Gao HTS	PKD1 kinase inh	GALR2 ag	Insulin prom inh	Insulin prom inh cell count
S=c1nc(C2CC2)n(-c2ccccc2)[nH]1	i	0.88	101	.	.	.	.
Cc1nnc(NCCc2ccccc2)n(N)c1=O	i	0.89	106	-7	-0.6	11	142
Cn1c(CN2CCCCC2)nc2cc(NC(=O)c3ccc(Cl)cc3)ccc21	i	0.77	93	-7	-2.2	25	76
Cc1c(N/C=C/C(=O)c2cccs2)c(=O)n(-c2ccccc2)n1C	i	1.1	99	6	-1.1	.	.
O=C(CSc1ncnc2sc3c(c12)CCC3)Nc1ccccc1C(=O)O	i	0.91	100	.	.	.	.
COc1cccc(NC(=S)NNC(=O)c2c([N+](=O)[O-])c(C)nn2C)c1	i	0.75	100	5	-0.6	-22	131
CCOC(=O)C1(Cc2cccc(F)c2)CCN(Cc2ccon2)CC1	i	1	99	1	.	.	.
CCN(CC)c1nc(N)n(CCSC(=S)N(C)C)c(=O)n1	i	1	101	.	.	.	.
O=C1c2ccccc2C(O)(Cc2ccccc2)N1C1CCCCC1 (stereo unspecified)	i	0.92	82	-11	-0.4	32	140
CC(=O)c1ccc(NC(=S)NN2C(C)CCCC2C)cc1 (stereo unspecified)	i	0.98	102	-1	.	.	.
COc1cc(OC)c2c(C)cc(=O)oc2c1C(CCN1CCOCC1)c1ccc2c(c1)OCO2 (stereo unspecified)	i	0.91	101	.	.	.	.
CC1CN(c2ccc(NC(=S)NNCCC#N)cc2)CC(C)O1 (stereo unspecified)	i	1	110	.	.	.	.
O=C(/C=C\Nc1ccc(Br)cc1)c1cccnc1	i	0.91	97	-4	1.0	-37	111
COc1ccc(N(CC(=O)N2CCN(C)CC2)S(C)(=O)=O)cc1OC	i	1.1	190	-11	-1.7	.	.
O=C(NCc1ccco1)c1ccc(Cn2c(=S)[nH]c3ccccc3c2=O)cc1	i	0.88	99	0	.	-9	77
COC(=O)c1cc(NS(=O)(=O)c2ccc(Cl)c(N3C(=O)c4ccc(C(=O)O)cc4C3=O)c2)cc(C(=O)OC)c1	i	0.9	95	.	.	.	.
CCOc1ccc(NC(=O)Nc2cc(C(C)C)ccc2C)cc1	i	0.66	101	.	.	.	.
Cc1ccc(S(=O)(=O)N2CCN(C(=O)CSc3ncc(C(F)(F)F)cc3Cl)CC2)cc1	i	0.84	110	-7	2.0	-63	29
CC(=O)c1nn(-c2ccccc2)cc1C(=O)c1cccc(Br)c1	i	0.85	83	-11	2.1	20	78
COc1ccc(OCC(O)CNC(=O)/C=C/c2cccc([N+](=O)[O-])c2)cc1 (stereo unspecified)	i	0.96	102	-6	.	.	.
Cc1nc(N2CCN(C(=O)CCC(=O)O)CC2)c2c(C)c(C)sc2n1	i	0.88	99	1	-1.3	.	.
CCN(CC)N=Nc1ccc(S(=O)(=O)N2CCSC2C(=O)O)cc1 (stereo unspecified)	i	1.3	98	-11	.	.	.
O=C(Nc1ccnc(-c2cccnc2)n1)c1cccc(Cl)c1Cl	i	0.78	93	9	-0.1	-16	79
CCc1nnc(NC(=O)CSc2nnc(COc3ccccc3)n2-c2ccc(C)cc2)s1	i	0.97	102	-4	-0.1	-88	213
NNC(=O)/C(=C/c1cccs1)NC(=O)c1ccccc1Cl	i	0.98	102	-12	.	.	.
Next section
SMILES	HSV replic up	HSV replic up primary fold	RGS16-Gao HTS	PKD1 kinase inh	GALR2 ag	Insulin prom inh	Insulin prom inh cell count
O=C(NN=C1CCCCCC1)c1cc(-c2ccccc2)nc2ccccc12	i	1	97	8	-2.0	.	.
O=[N+]([O-])c1ccc(CN2CCN(c3ccc4ccccc4n3)CC2)cc1	i	0.88	136	-5	.	6	116
CC(C)CNC(=O)COC(=O)c1cncc(Br)c1	i	1.2	100	-3	-1.5	2	64
CCCCCN1CN(S(=O)(=O)c2cccs2)c2nc3ccccc3nc21	i	0.98	100	.	.	.	.
CCCCc1nc2sc3c(=O)n(N)cnc3c2c2c1CCC2	i	0.89	102	0	.	.	.
O=C(CC(=O)N/N=C/c1cccs1)NCc1ccccc1	i	0.98	101	7	.	19	125
CC(COc1ccccc1)N(CCCl)Cc1ccccc1 (stereo unspecified)	i	0.97	100	-1	-0.6	-14	136
Cc1ccnn1CCC(=O)O	i	0.97	101	.	.	.	.
O=[N+]([O-])c1ccc(Nc2cccc(F)c2)nc1	i	0.97	103	1	.	.	.
Cc1cccn2c(=O)c3cc(C#N)c(=NC(=O)c4cccnc4)n(CC4CCCO4)c3nc12 (stereo unspecified)	i	0.95	.	0	7.5*	-41	121
O=C1CC(c2ccc(F)cc2)CC2=C1C(c1ccc([N+](=O)[O-])o1)Nc1ccccc1N2 (stereo unspecified)	i	0.9	104	.	.	.	.
CCn1nccc1C(=O)Nc1cc(Cl)cc(Cl)c1	i	0.76	105	3	1.3	-8	194
CC(C)(C)NC(=O)NC(=O)COC(=O)Cn1cnc2ccccc2c1=O	i	1	98	-4	.	.	.
COC(=O)c1nnn(-c2nonc2N)c1CSc1nnc(C)s1	.	.	104	-3	.	15	109
COc1ccc(NC(=O)C(CCCCNC(=O)OC(C)(C)C)NC(=O)OCc2ccccc2)cc1 (stereo unspecified)	i	0.99	109	-2	-0.7	37	136
CCn1cc(CN2CCN(Cc3ccc(C)o3)C(CCO)C2)c2ccccc21 (stereo unspecified)	i	0.79	107	4	.	.	.
COc1cccc(Oc2nnnn2-c2ccccc2)c1	i	1.1	104	9	-1.8	.	.
S=C(Nc1ccc(Cl)cc1)N1CCCCC1	i	1	111	-14	-1.1	16	103
C/C=C\C(=O)Nc1cccc(C2=NOC3(C2)C[C@H](C(N)=O)N(C(=O)/C=C/CC)C3)c1 (stereo partly specified)	i	0.89	112	.	.	.	.
Cc1c(C(c2ccccc2O)c2c(C)n(C)n(-c3ccccc3)c2=O)c(=O)n(-c2ccccc2)n1C	i	1.1	101	-3	.	18	134
CC1CCCCN1C(=O)COc1ccc(F)cc1 (stereo unspecified)	i	0.94	111	-5	.	11	114
Cc1cc(OCC(=O)NCc2cccnc2)ccc1[N+](=O)[O-]	i	0.95	98	-5	.	.	.
Cc1ccc(-c2nnc(SCc3ccccc3F)o2)cc1	i	1.1	95	0	-2.7	45	76
CNc1ncc(C(=O)c2ccccc2)s1	i	0.96	98	-12	-4.3	38	127
COc1ccc(-n2cnnc2SC(C)c2nc3sc(C)c(C)c3c(=O)[nH]2)cc1 (stereo unspecified)	i	0.86	103	-7	-1.9	31	142

Ordered by number of heavy atoms (rising): part of the list above.
SMILES	HSV replic up	HSV replic up primary fold	RGS16-Gao HTS	PKD1 kinase inh	GALR2 ag	Insulin prom inh	Insulin prom inh cell count
Cc1ccc(-c2nnc(SCc3ccccc3F)o2)cc1	i	1.1	95	0	-2.7	45	76
COC(=O)c1nnn(-c2nonc2N)c1CSc1nnc(C)s1	.	.	104	-3	.	15	109
O=C1CC(c2ccc(F)cc2)CC2=C1C(c1ccc([N+](=O)[O-])o1)Nc1ccccc1N2 (stereo unspecified)	i	0.9	104	.	.	.	.

Continuation:
SMILES	HSV replic up	HSV replic up primary fold	RGS16-Gao HTS	PKD1 kinase inh	GALR2 ag	Insulin prom inh	Insulin prom inh cell count
COc1ccc(-n2c(=O)c3ccccc3n(Cc3cccc(C)c3)c2=O)cc1OC	i	0.8	79	-2	.	.	.
O=C(Nc1cccnc1)c1c(F)cccc1F	i	0.89	115	1	-0.1	-61	57
COc1ccc(C(NC(N)=O)c2ccccc2)cc1 (stereo unspecified)	i	1.1	99	-1	-1.9	29	102
O=C(O)CC(NCc1ccco1)C(=O)OCC1CCCO1 (stereo unspecified)	i	1	115	-13	-0.5	-79	109
CCOc1ccccc1CNC(=O)c1cn(C)c(=O)c2c1c1ccccc1n2C	i	0.93	103	-7	.	-38	119
COC(=O)c1ccc(SCc2cnc(Cl)s2)cc1	i	0.82	102	-2	-1.5	.	.
O=C(Cc1ccccc1Cl)Nc1cccc(S(=O)(=O)N2CCOCC2)c1	i	1	98	5	2.7	.	.
CCn1cnc2cc(NCc3ccc(N(C)C)cc3)ccc21	i	0.89	104	1	.	.	.
O=C(COc1ccccc1Cl)Nc1ccc(C(=O)c2ccc(C(=O)O)cc2)cc1	i	0.96	101	-3	.	-121	83
Cc1ccc(NC(=O)CSCc2nc3c(nnn3Cc3ccc(F)cc3)c(=O)[nH]2)c(C)c1	i	0.94	97	0	.	.	.
Cc1ccc(C(=O)Nc2cccc([N+](=O)[O-])c2)cc1S(=O)(=O)Nc1ccc(C(=O)O)cc1	i	0.87	99	-5	.	27	121
O=C(CCS(=O)(=O)c1cccc2nonc12)NCc1ccc(Cl)cc1	i	1.1	98	-3	.	.	.
O=C(COC(=O)CCc1ccc(S(=O)(=O)N2CCOCC2)cc1)Nc1cccc(Cl)c1	i	0.93	98	0	.	.	.
Cc1ccc(CNC(=O)CO/N=C/c2ccc3c(c2)OCO3)cc1	i	0.99	109	-11	-0.7	53	184
Cc1cc([N+](=O)[O-])cc2c1NC(c1ccccn1)C1CC=CC21 (stereo unspecified)	i	1.1	95	8	.	.	.
CCOC(=O)c1c(NC(=O)CSc2nnc(-c3cccnc3)n2Cc2ccco2)sc(C)c1C	.	.	96	-11	-1.1	.	.
COc1cccc(/C=N/NC(=O)CSc2nnc(C)n2-c2ccccc2)c1O	.	.	67	-4	-2.4	.	.

Assay outcomes as filed in PubChem.
